YopH PTP inh: blocks Yersinia enterocolitica YopH tyrosine phosphatase; AID 898; fluorescence Ex485/Em525; actives 0.16% (n = 140,000); inhibition, %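 (about 10 µM by stock and volumes)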;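 active = inhibition of 50% or more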;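 also: controls were vehicle for no effect and minimum signal wells for full effect; inactives centre near -20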
Arbovirus anti: blocks arbovirus infection | actives 0.37% (n = 200,000) | arbovirus infection cell-based antiviral screen | inhibition, % at 10 µM | AID 1251;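 active = inhibition from about 30%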;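 also: bluetongue infection of BSR cells; cell survival read as ATP light after 72 h; 0% = infected wells without compound and 100% = uninfected wells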
Mtb betalactam: beta-lactam sensitization of Mtb H37Rv. M. tuberculosis H37Rv growth with meropenem, percent inhibition; hits of this screen are not shown here. inhibition, % at 25 µM. actives 0.27% (n = 330,000). AID 434955;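 active = about 74% or more and at least 40 points above the plate without the antibiotic, then above 30% in a dose series; inconclusive = first-round hits that could not be retested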;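 also: growth measured after seven days incubation then overnight dye step; 0% = bacteria only wells and 100% = bacteria with antibiotic; twin plates without the antibiotic show which effects depend on it; some results filed as inactive read as strong as hits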
Mtb growth: M. tuberculosis H37Rv growth inhibitors, H37Rv strain (AID 1626). inhibition, % at 10 µM; hits with a dose series show IC50 in µM. actives 0.95% (n = 220,000). M. tuberculosis H37Rv growth inhibition; higher % means a stronger effect;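 active = confirmed in a dose series; inconclusive = inhibition above 80% but not taken into the dose series; inactive = below 80% or under 30% at every dose of the series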;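 also: bacteria incubated seven days before Alamar blue readout; 0% = bacteria only wells and 100% = bacteria with antibiotic wells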
RecA intein inh: blocks M. tuberculosis RecA intein splicing | P9WHJ3 | cell-free RecA intein splicing, fluorescence | inhibition, %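 (about 9 µM by stock and volumes)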 | actives 0.75% (n = 290,000); in the data active = inhibition above about 30%; inconclusive = no clear call, values can overlap the other calls;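 also: 0% = vehicle wells and 100% = reference inhibitor control wells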
Target sequence (P9WHJ3 whole entry, looked up): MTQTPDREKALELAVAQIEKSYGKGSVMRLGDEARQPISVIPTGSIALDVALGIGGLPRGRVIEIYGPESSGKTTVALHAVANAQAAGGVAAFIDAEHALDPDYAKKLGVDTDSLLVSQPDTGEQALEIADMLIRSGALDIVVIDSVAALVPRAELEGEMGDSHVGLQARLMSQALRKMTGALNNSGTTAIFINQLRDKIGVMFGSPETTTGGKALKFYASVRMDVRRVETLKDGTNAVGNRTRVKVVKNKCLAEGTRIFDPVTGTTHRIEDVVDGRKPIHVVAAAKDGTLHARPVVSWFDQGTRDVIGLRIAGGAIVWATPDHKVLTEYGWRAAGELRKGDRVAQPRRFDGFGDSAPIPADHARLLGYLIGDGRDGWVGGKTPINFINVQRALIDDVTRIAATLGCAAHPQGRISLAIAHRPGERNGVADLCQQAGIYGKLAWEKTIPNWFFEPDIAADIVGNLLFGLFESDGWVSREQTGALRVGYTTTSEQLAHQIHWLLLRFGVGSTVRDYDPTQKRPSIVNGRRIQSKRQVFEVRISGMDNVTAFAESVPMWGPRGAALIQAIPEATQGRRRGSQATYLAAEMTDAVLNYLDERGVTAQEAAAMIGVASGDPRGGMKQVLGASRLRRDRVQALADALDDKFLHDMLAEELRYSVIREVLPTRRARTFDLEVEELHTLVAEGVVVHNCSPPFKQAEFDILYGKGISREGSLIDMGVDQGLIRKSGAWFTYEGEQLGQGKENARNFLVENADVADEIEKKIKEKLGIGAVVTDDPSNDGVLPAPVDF
Arbovirus anti repeat: also measured in Arbovirus anti; calls as there; inhibition, %; measured here: 10K subset replicate screen; many hits read low in the repeat;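 first of two repeat runs on a subset; 0% = infected and 100% = uninfected wells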
* hit, by the source's call; ? = inconclusive; . = not tested or not shown.

SMILES	YopH PTP inh	Arbovirus anti	Mtb betalactam	Mtb growth	RecA intein inh	others
CCOC(=O)c1c(C)c(C(=O)NCc2ccc3c(c2)OCO3)c(C)n1CC	-25.2	-0.9	-4.0	-7.5%	1.3
O=C(CN1CCN(Cc2ccccc2)CC1)Nc1cccc(C(F)(F)F)c1	2.4	-8.7	4.0	26.4%	2.3
Cc1ccc(-n2c(C)c3c(C)nnc(C)c3c2C)cc1N	.	-2.5	3.2	9.1%	22.1
COc1ccc(C(=O)Nc2ccccc2C(=O)NCCN2CCOCC2)cc1OC	.	.	?	.	1.3
O=C(CSc1nc(=O)n2cc(Cl)ccc2n1)Nc1ccc2c(c1)OCCO2	.	.	-6.2	.	-0.1
N#Cc1ccc(-c2csc(NC(=O)/C=C/c3cccs3)n2)cc1	-33.5	-4.0	-3.9	6.8%	-6.5
CCCCOc1ccc(C(=O)N/C(=C\c2cccc([N+](=O)[O-])c2)C(=O)OCCC)cc1	-48.1	6.9	-12.6	.	1.2
O=C(COC(=O)c1ccc(Cl)nc1)Nc1ccc(S(=O)(=O)N2CCCC2)cc1	-22.1	0.3	-4.5	-6.4%	-1.0
Cc1cc(NC(=O)c2cnn3c(C(F)(F)F)cc(-c4ccc(Br)cc4)nc23)no1	6.4	-4.6	-1.2	4.9%	-2.1
COc1ccc(CCNC(=O)c2ccccc2C(=O)NCCc2ccc(OC)c(OC)c2)cc1OC	.	.	-0.8	.	-0.2
COc1ccc(S(=O)(=O)N2CCC(C(=O)NC3CC3)CC2)cc1Cl	-8.8	-0.1	1.2	3.9%	-1.0
CCc1ncc(CN2CCCC(C(=O)Nc3cccc(-c4cccc(C)c4)c3)C2)cn1 (stereo unspecified)	.	.	87.7	.	5.4
CC[N+]1=CN(c2ccccc2)C(C)=CC1(C)C	-40.9	0.7	2.0	2.1%	1.0
Cc1csc2nc(CCNS(=O)(=O)c3cccs3)cn12	-33.3	-3.1	6.5	6.1%	1.9
O=S(=O)(c1ccc(Br)cc1)n1c(Cc2ccccc2)nc2ccccc21	-18.8	-2.7	-8.6	4.3%	-2.6
Cn1nc(C(F)(F)F)c2cc(C(=O)Nc3ccc(F)cc3F)sc21	-13.1	1.1	19.6	6.1%	1.1
CCOC(=O)c1cccc(NC(=O)C2(S(=O)(=O)c3ccc(Cl)cc3)CC2)c1	-21.1	-0.8	-2.4	1.0%	0.5
CCCCC(C(=O)N/N=C/c1ccccn1)C(=O)N/N=C/c1ccccn1	.	.	37.1	-5.9%	0.6
CCC(CC)C(=O)N1CC(=O)Nc2ccc(C)cc2C1c1ccccc1 (stereo unspecified)	.	.	3.4	.	0.4
CN(C)C(CNC(=O)CCNC(=O)c1ccc(Br)cc1)c1ccco1 (stereo unspecified)	.	.	-4.2	.	1.1
Cc1ccccc1N(Cc1ccccc1F)S(C)(=O)=O	-55.2	13.1	11.6	-5.6%	0.5
O=C(NCC(c1ccco1)N1CCc2ccccc2C1)c1ccc(F)cc1 (stereo unspecified)	.	.	-3.7	.	3.3
O=C(CSc1ncn[nH]1)NCc1ccccc1Cl	.	.	-4.1	.	-1.1
COC(=O)c1cc(COC(=O)c2ccc3ccccc3n2)oc1C	-50.7	-1.7	32.5	-4.0%	0.5
CCOc1cccc(C(=O)NC(=S)Nc2ccc3c(c2)OCCO3)c1	.	11.7	-6.0	-2.8%	18.8
COc1cc(/C=N/NC(=S)NCCN2CCOCC2)cc(OC)c1O	-32.5	5.8	-2.5	-4.7%	-17.1
Cc1ccc2[nH]c(=O)c(CN(CCCN(C)C)C(=O)Nc3cccc(Cl)c3)cc2c1	8.4	-33.2	4.6	7.1%	-0.5
NS(=O)(=O)c1ccc(CCNC(=S)NC2CCCC2)cc1	.	6.2	-0.2	-5.0%	-2.9
C=CCSc1nnc(NC(=O)C2=COCCO2)s1	.	.	-4.7	.	-0.7
O=C(Nc1ccc(S(=O)(=O)N2CCOCC2)cc1)c1ccc(CN2CCc3ccccc3C2)cc1	-26.9	-20.3	74.5	16.8%	1.3
O=C(Nc1ccc(F)cc1)N1CCN(c2ccc3nnc(-c4ccc(F)cc4)n3n2)CC1	-55.3	2.5	2.9	23.6%	-0.4
Cc1cc(C)cc(N(CCC(=O)O)S(=O)(=O)c2ccc(Cl)cc2)c1	-21.8	2.2	1.4	-9.8%	-4.9
COc1ccccc1N1CCN(C(=O)C(C)NC(=O)c2cccc([N+](=O)[O-])c2)CC1 (stereo unspecified)	.	.	3.7	.	0.1
Cc1cccc(NC(=O)Cc2ccc(NC3=NC4CS(=O)(=O)CC4S3)cc2)c1 (stereo unspecified)	.	.	-3.0	.	-2.4
c1ccc(OCCOCCN2CCc3ccccc3C2)cc1	-27.6	7.5	0.1	6.1%	1.3
Cc1cc(=O)oc2c(C)c(OC(C)C(=O)NCCCN3CCCC3=O)ccc12 (stereo unspecified)	.	.	-11.6	.	-0.5
Cc1c2ccccc2nc2ccccc12	.	.	5.1	.	-35.8
COc1ccc(C(=O)CSc2nn3c(=O)c(C(C)(C)C)nnc3s2)cc1	-33.5	6.6	3.3	-11.9%	1.3
CC(C)Sc1nc2c(c(=O)[nH]c(=O)n2C)n1Cc1ccc(Cl)cc1	-41.4	10.2	0.3	11.2%	-1.8
Cc1ccc(C2=NN(C(=O)CSc3nccn3C)C(c3ccco3)C2)cc1 (stereo unspecified)	.	.	?	.	6.2
CCN=C1SC(C(=O)Nc2ccc(OC)cc2)CC(=O)N1CC (stereo unspecified)	.	8.2	1.5	-8.7%	-1.1
O=C1NC(=S)N(c2ccccc2)C(=O)/C1=C/c1ccco1	.	.	2.2	.	7.4
Cc1csc2nc(CNS(=O)(=O)c3ccc4c(c3)OCCO4)cn12	3.4	13.1	-2.7	9.7%	-0.4	Arbovirus anti repeat=3.1
Cc1ccc2c(=O)[nH]c(Nc3nc(C)cc(-c4ccccc4)n3)nc2c1	.	.	-3.0	-12.2%	-5.8
O=S(=O)(N1CCCCCC1)N1CCN(S(=O)(=O)N2CCOCC2)CC1	29.6	5.1	-7.2	9.5%	-2.0
Cc1ccc(OCCCN2C(=O)C(=O)c3cccc(C)c32)cc1	-11.0	-5.8	33.2	6.8%	0.7
CC(=O)c1ccccc1OCCn1nnc(-c2ccc(C)cc2)n1	-25.2	-4.1	-6.2	9.3%	-0.2
COc1ccc(CCNC(=O)c2ccc(CS(=O)(=O)c3ccc(C)cc3)o2)cc1OC	-51.6	7.9	2.0	-7.4%	2.0
CCc1ccc(Oc2coc3cc(OCC(=O)Nc4cc(C)ccc4C)ccc3c2=O)cc1	-12.5	-16.6	1.0	2.9%	-0.8
CCCCn1c(N)c(N(CCOC)C(=O)c2ccc(-c3ccccc3)cc2)c(=O)[nH]c1=O	.	.	-5.2	.	-2.9
Cc1cc(=O)[nH]c(SCC(=O)N2CCCCCC2)n1	-36.1	0.2	-13.9	-5.3%	-0.6
CC(=O)c1cccc(NC(=O)c2cnccn2)c1	.	.	-4.4	.	-0.7
Cc1onc(-c2ccccc2)c1C(=O)n1cc(Br)cn1	-11.0	8.9	-4.0	-11.5%	12.7
CC(C)c1ccc(NC(=O)N(CCc2nc3ccccc3[nH]2)C2CCCC2)cc1	-20.1	11.8	-2.0	-2.2%	-1.2
Fc1ccc2nc(C(F)(F)F)cc(N3CCOCC3)c2c1	.	.	4.8	.	-1.6
CS(=O)(=O)c1ccc2c(c1)SC1=NC(=O)/C(=C/c3ccco3)C(=N)N12	12.4	13.9	?	-7.2%	1.7
CCc1nnc(NC(=O)CN2CCOCC2)s1	-47.2	11.8	8.0	0.6%	0.9	Arbovirus anti repeat=1.5
CCC(Oc1ccccc1C)C(=O)N1CCCN(C)CC1 (stereo unspecified)	.	.	-10.1	.	1.4
O=C(N/C(=C\c1ccccc1)C(=O)N1CCOCC1)c1cccc(Br)c1	.	.	4.8	.	4.2
COc1ccccc1NC(=O)c1ccc(NC(=O)COC(=O)C2CCCCC2)cc1	-15.8	-5.6	3.5	1.0%	2.9

Next part.
SMILES	YopH PTP inh	Arbovirus anti	Mtb betalactam	Mtb growth	RecA intein inh	others
O=C(Cn1ccc(C(F)(F)F)n1)Nc1ccc(S(=O)(=O)NCc2ccco2)cc1	-13.8	5.7	-3.9	3.3%	-0.3
O=C(NC1CCCCC1NC(=O)c1ccco1)c1ccco1 (stereo unspecified)	10.4	0.2	-8.6	-1.3%	-2.6
COC(=O)[C@@H](NC(=O)Nc1cccc(OC)c1)C(C)C	-17.1	8.1	-10.8	-2.2%	-0.5
C(=N\N=C\c1ccccn1)/c1ccccn1	.	.	2.3	.	-3.5
Cc1ccc(C)c(CSc2nc3[nH]ncc3c(=O)[nH]2)c1	.	-20.7	-0.2	7.6%	-1.0
O=C(Nc1cccnc1)c1ccccc1NS(=O)(=O)c1ccc(F)cc1	.	4.7	-1.2	1.6%	.
COc1cc(CN2CCN(CCCc3ccccc3)CC2CCO)cc(OC)c1 (stereo unspecified)	.	.	1.9	.	3.5
COc1ccc(N2C(=O)c3ccccc3C(C)(C)C2=O)cc1	.	.	-5.4	.	0.3
Cc1cc(N2CCN(C)CC2)nc2ccc(NC(=S)NC3CC3)cc12	.	-3.7	-4.5	-4.4%	4.9
O=C(N/N=C/C1C(=O)NC(=S)N(c2ccccc2)C1=O)c1cc(Br)c(O)c(Br)c1 (stereo unspecified)	.	-2.5	9.0	-2.8%	2.1
CCOc1ccc(-c2nc(N)ncc2-c2ccccc2OC)c(O)c1	.	.	3.1	3.5%	2.9
Cc1cccc(N(Cc2ccccc2)C(=O)CSC(C)C(=O)Nc2cc(C)on2)c1 (stereo unspecified)	.	.	2.1	.	4.7
O=C(N/N=C/c1ccc[nH]1)c1ccccc1OCc1ccccc1Cl	.	-4.2	4.2	12.3%	3.0
Cc1nc2c(C)[n+](CC(=O)c3ccccc3)ccc2n1C	.	.	-3.4	-0.7%	1.8
COc1ccc(CNCC(=O)Nc2ccccc2-n2cccc2)cc1	.	-8.0	2.6	0.3%	0.9
COc1cc2c(cc1OC)CN(c1ccc(-c3ccccc3OC)nn1)CC2	-6.6	-9.4	49.4	1.0%	8.2
CCOP(=O)(OCC)/C(=N/OC(=O)c1ccc(Cl)cc1Cl)C(N)=O	.	.	0.3	-9.4%	-1.6
CCN(CC)C(=O)CSc1nnc(-c2ccco2)o1	-15.3	2.5	-8.5	11.0%	2.7
Cc1cc(NC(=O)c2ccccc2-c2ccccc2C(=O)O)no1	-13.4	8.2	28.1	-5.5%	1.6
O=C(NC1CCCC1)C(c1ccncc1)N(CCCN1CCOCC1)C(=O)c1ccc(-c2ccccc2)[nH]1 (stereo unspecified)	.	11.3	-0.3	-2.9%	-4.8
COc1ccccc1CNC(=O)C(CC(C)C)NC(=O)C1CCC(C)CC1 (stereo unspecified)	3.3	-11.7	?	-2.2%	-0.2
Cc1ccccc1-n1nnnc1SCc1cc(=O)n2ccsc2n1	.	-3.4	-8.6	3.6%	0.2
O=C(Cn1cnc2ccccc21)Nc1ccc(F)c(F)c1	.	7.8	-2.0	-8.1%	0.0
O=C(Nc1cccc(C(=O)O)c1)/C(=C\c1ccc(F)cc1)NC(=O)c1ccco1	.	.	5.9	.	3.5
O=C(Cn1cccn1)N1CCCC(Nc2ccc(F)c(F)c2)C1 (stereo unspecified)	.	.	-2.0	.	-0.6
Cc1c(CCC(=O)NC2CC2)c(=O)oc2cc(O)ccc12	.	.	0.9	.	0.5
O=C(Cn1nc(-c2ccc(Cl)cc2)ccc1=O)NCc1ccc2c(c1)OCO2	-39.8	-8.8	-5.6	.	1.5
CCOC(=O)C(c1ccccc1)N1CCN(c2ccc(OC)cc2)CC1 (stereo unspecified)	-28.9	4.5	18.8	6.4%	0.0
O=S(=O)(c1ccc(Br)cc1)N1CCCN(Cc2ccccc2F)CC1	-22.4	12.2	1.8	1.9%	2.6
COc1ccc(C(=O)Nc2cnc(NC(=O)c3cccs3)cc2C)cc1	.	.	37.4	.	-1.5

Already shown: five of the compounds above.
SMILES	YopH PTP inh	Arbovirus anti	Mtb betalactam	Mtb growth	RecA intein inh	others
Cc1c(CCC(=O)NC2CC2)c(=O)oc2cc(O)ccc12	.	.	0.9	.	0.5
O=C(Cn1nc(-c2ccc(Cl)cc2)ccc1=O)NCc1ccc2c(c1)OCO2	-39.8	-8.8	-5.6	.	1.5
CCOC(=O)C(c1ccccc1)N1CCN(c2ccc(OC)cc2)CC1 (stereo unspecified)	-28.9	4.5	18.8	6.4%	0.0
O=S(=O)(c1ccc(Br)cc1)N1CCCN(Cc2ccccc2F)CC1	-22.4	12.2	1.8	1.9%	2.6
COc1ccc(C(=O)Nc2cnc(NC(=O)c3cccs3)cc2C)cc1	.	.	37.4	.	-1.5

Screens: PubChem BioAssay, several laboratories

These rows are one share of the data; the hit share may differ from the screen's.
